Source: PubChem (National Center for Advancing Translational Sciences (NCATS))
GLA inh pH 4.5 – inhibitors of human alpha-galactosidase A at pH 4.5. P06280. activity change, negative = inhibition, % at 105 µM. purified enzyme, 4-MU-alpha-Gal fluorescence, pH 4.5. 230,000 tested, under 10 active; inconclusive = small, poorly fitted or top-dose-only inhibition, or a rising curve; inactive = flat fitted curve, though single readings scatter; no compound was filed as active;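 note: 0% = full activity with enzyme and -100% = basal without enzyme; dose as in the result columns while the protocol names 77 µM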
miR-21 reporter – miR-21 reporter, rising signal | HeLa miR-21 FLuc reporter, luciferase, 48 h | Potency, µM (top dose mostly 38.3 µM), without a hit: at the top dose reporter change, positive = more light | 340,000 tested, under 10 active | AID 2288; active = well fitted rising curve with a large enough effect; inconclusive = small, poorly fitted or top-dose-only effect; inactive = no such curve, though single readings can be large or run the other way;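 note: % of control where 0% means no effect; miR-21 action dims this reporter so a rising signal means less miR-21 action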
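Compounds were titrated across several concentrations (up to approximately 40 uM) and incubated 48 hours with HeLa miR-21-FLuc reporter cells (miR-21 target sequence downstream of FLuc, endogenous miR-21). Readout was firefly luciferase luminescence after lytic detection reagent.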
Rango release inh – prevents RanGTP from dissociating the Rango-importin beta complex. AID 540253. actives 0.071% (n = 340,000). Potency, µM (doses to about 46.1 µM), inactives show at the top dose activity change, negative = inhibition. Biochemical FRET Rango-importin beta, RanGTP-induced dissociation. O95149+P62826; active means falling FRET ratio curve, often poorly fitted, with flat reads before Ran was added; inconclusive means other falling curves, or compound fluorescence or quenching; inactive means flat or rising ratio curve;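 note: potency is the fitted concentration of half-maximal effect; % of control where 0% means no effect; nearly all actives have a fitted effect of over 45% in size; -100% = wells without RanGTP and RCC1; the record marks most hits as doubtful in a second field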
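Quantitative HTS using a FRET biosensor: 0.1 uM Rango, 0.25 uM importin beta, 0.6 uM Ran, 2 mM GTP, 0.2 uM RCC1 final, PBS with DTT, Tween-20 and BSA. Post-read taken 45 min after Ran addition.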
Rango-impB inh – inhibitors of Rango-importin beta complex formation | Q14974 | Rango CFP/YFP FRET sensor + importin beta, 45 min | Potency, µM (series often up to 92.2 µM), for the others: at the top dose inhibition of complex formation | actives 0.031% (n = 340,000); active = rising FRET ratio curve, often small or poorly fitted; inconclusive = mostly compound fluorescence or quenching in the first reads; inactive = flat curves in all reads;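 note: potency is the fitted concentration of half-maximal effect; 0% = DMSO wells and 100% = buffer wells lacking importin beta; nearly all actives have a fitted effect of over 15% in size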
Target sequence (Q14974 whole entry, looked up): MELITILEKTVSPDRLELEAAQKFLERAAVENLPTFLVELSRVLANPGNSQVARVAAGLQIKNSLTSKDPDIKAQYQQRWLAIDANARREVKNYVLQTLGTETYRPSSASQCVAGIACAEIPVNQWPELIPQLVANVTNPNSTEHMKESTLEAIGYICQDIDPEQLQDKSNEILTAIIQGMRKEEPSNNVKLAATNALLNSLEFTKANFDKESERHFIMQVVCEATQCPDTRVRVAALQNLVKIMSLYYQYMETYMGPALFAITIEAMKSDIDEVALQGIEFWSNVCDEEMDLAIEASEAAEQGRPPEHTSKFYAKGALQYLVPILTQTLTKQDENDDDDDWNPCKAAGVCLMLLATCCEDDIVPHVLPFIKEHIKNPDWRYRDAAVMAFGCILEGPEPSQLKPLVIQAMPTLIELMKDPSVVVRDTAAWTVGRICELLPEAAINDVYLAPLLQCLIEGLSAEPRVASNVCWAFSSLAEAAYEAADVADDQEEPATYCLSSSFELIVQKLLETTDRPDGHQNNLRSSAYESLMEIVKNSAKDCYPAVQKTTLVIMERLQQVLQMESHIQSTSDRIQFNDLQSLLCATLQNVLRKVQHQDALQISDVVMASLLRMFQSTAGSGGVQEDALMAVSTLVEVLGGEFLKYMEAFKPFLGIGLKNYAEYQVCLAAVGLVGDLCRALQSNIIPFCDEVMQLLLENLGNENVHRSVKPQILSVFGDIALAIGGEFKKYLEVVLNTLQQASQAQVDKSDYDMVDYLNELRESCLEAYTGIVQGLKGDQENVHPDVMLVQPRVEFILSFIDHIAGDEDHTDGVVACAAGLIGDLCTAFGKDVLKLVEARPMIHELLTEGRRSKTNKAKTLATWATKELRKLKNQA
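Inhibition scored from the CFP 486 nm/YFP 530 nm FRET ratio 45 min after adding 0.125 microM importin beta to 50 nM Rango biosensor preincubated 5 min with compound (room temperature, PBS with DTT, Tween-20, BSA). No-importin wells as positive control.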
Active calls of the source: *; ? = inconclusive; . = not tested or not shown; & = joins results of further samples. Not all compounds are listed, so the mix of outcomes need not match the whole.

SMILES	GLA inh pH 4.5	miR-21 reporter	Rango release inh	Rango-impB inh
Cc1nc2ccccc2c(=O)n1-c1ccccn1	6	-18%	-9%	0.1%
O=P(OCC(F)(F)C(F)F)(N1CCOCC1)N1CCOCC1	4	-6%	1%	0.2%
CCOC(=O)c1c(C)[nH]c(C(=O)C(Cc2ccccc2)N(C)C)c1C (configuration not stated)	-4	-22%	-5%	-1.6%
C[C@]12CC[C@@H](O)CC1=CCC1C2CC[C@@]2(C)C1CC[C@@H]2N (some centres not stated)	.	.	-11%	?
CN(C)P(=O)(N(C)C)N1CC1	.	.	20%	-0.3%
CC(=O)c1cc(C#N)c(N2CCN(C)CC2)nc1C	1	-2%	12%	4.9%
Cc1ccc(S(=O)(=O)N2Cc3cnnn3-c3ccccc3C2C#N)cc1 (configuration not stated)	.	.	9%	-0.5%
C=CCn1c(O)c(C=NCCN(C)C)c(=O)[nH]c1=O	3	-1%	7%	-1.8%
Cn1c(O)c(C=NCc2ccco2)c(=O)n(C)c1=O	-3	6%	8%	-4.4%
OCCOCCO	.	.	-4%	1.9%
CCc1ccc(N2C(=O)NC(=O)C(Cc3ccc(OC)cc3OC)C2=O)cc1 (configuration not stated)	-3	-3%	0%	-4.0%
CC1=C(C(=O)O)N2C(=O)C(NC(=O)CCCC(=O)O)C2SC1 (configuration not stated)	5	-12%	2%	-0.3%
O=C1C2CCCC1C(N1CCCC1)CC2 (configuration not stated)	-9	-4%	6%	2.7%
O=C(COC(=O)Cc1ccccc1)Nc1cccnc1Cl	7	6%	17%	-1.0%
CC(OC(=O)COc1ccc(Nc2ccccc2)cc1)C(=O)N(C)c1ccccc1 (configuration not stated)	.	.	18%	1.4%
N=Cc1c(O)n(-c2ccccc2)c(=O)n(-c2ccccc2)c1=O	-3	-2%	-24%	-2.2%
CCC(=NCCCN(C)C)c1c(O)n(-c2ccc(OC)cc2)c(=O)[nH]c1=O	-2	-4%	3%	4.0%
c1ccc(C(CN2CCCCC2)c2ccccc2)cc1	.	.	-7%	5.7%
COc1ccc(C2SCC(=O)Nc3c2c(C)nn3C2CCOC(C)(C)C2)cc1 (configuration not stated)	8	0%	-12%	0.6%
CN(C(=O)Oc1ccc(C(C)(C)C)cc1)c1ccccc1	-8	-54%	2%	-1.4%
COc1ccccc1Cn1c(SCC#N)nc2cc(C(=O)N3CCC4(CC3)OCCO4)ccc2c1=O	-1	1%	-10%	3.2%
COc1ccc(CC2(CCc3ccncc3)C(=O)NC(=O)NC2=O)cc1OC	7	0%	-10%	2.4%
CCOC(=O)C1=C(N)Oc2cc(C)oc(=O)c2C12C(=O)N1c3c(cc(OC)cc32)C(C)=CC1(C)C (configuration not stated)	-4	-7%	-2%	-6.8%
O=c1[nH]c(=S)[nH]c(O)c1CN1CCCCC1	-18	2%	4%	-0.2%
c1ccc2c(N3CCNCC3)nsc2c1	-8	7%	-1%	-0.6%
(listing goes on)
SMILES	GLA inh pH 4.5	miR-21 reporter	Rango release inh	Rango-impB inh
O=C(COc1ccc(Cl)cc1Cl)N1CCN(C/C=C/c2ccccc2)CC1	-3	0%	0%	14%
Cc1cc(/C=C2/C(=O)NC(=O)N(c3ccc(Br)cc3)C2=O)c(C)n1C	1	0%	?	?
Cc1ccc(C[n+]2c(-c3ccc(C)cc3)cc(-c3ccc(C)cc3)cc2-c2ccc(C)cc2)cc1	.	.	-5%	3.9%
O=C1CN=C(c2ccc[nH]2)c2cc(Cl)ccc2N1	3	?	25%	-0.4%
Cc1ccc(C(C)C)c(OCC#CCN2CCCC2)c1	0	3%	10%	-0.2%
CCCCn1c(O)c(C(C)=NCCCn2ccnc2)c(=O)[nH]c1=O	-5	-1%	18%	-1.3%
COc1ccc2[nH]c3c(c2c1)CCNC3C (configuration not stated)	.	0%	-3%	-3.0%
Cc1cccc(C(O)(C(=O)O)c2ccccc2)c1 (configuration not stated)	.	.	-10%	-1.4%
CC12CN3CC(C)(CN(C1)C3c1cccnc1)C2=O (configuration not stated)	.	-3%	20%	0.8%
O=c1[nH]c(=O)n(Cc2ccc(F)cc2)c(O)c1C=NCCCN1CCOCC1	7	-5%	-1%	-1.9%
CCOC(=O)CC1c2ccccc2-n2nncc2CN1C (configuration not stated)	.	.	9%	-0.2%
Cc1cccc(CS(=O)(=O)Cc2ccc(C(=O)N3CCC4(CC3)OCCO4)o2)c1	-17	-1%	-3%	-5.6%
O=C(Cc1ccccc1)Oc1cccc(N2C(=O)CCC2=O)c1	1	-1%	12%	0.5%
CN(C(=O)Oc1ccc(C(=O)c2ccc(Cl)cc2)cc1)c1ccccc1	0	-5%	19%	-2.0%
Cc1cccc(CNCCc2ccccc2)n1	-11	-6%	13%	-1.3%
O=C(c1cc2nc(-c3ccccc3)cc(-c3ccccc3)n2n1)N1CCC2(CC1)OCCO2	-10	-3%	?	?
CN1C(=O)NC(=O)C2(Cc3ccccc3N3CCOCC32)C1=O (configuration not stated)	4	-1%	0%	0.2%
COC(=O)CSC1=NN1c1cc(C)nc(N)n1	-13	0%	-10%	5.4%
Cc1cc(OCC(=O)N2CCC(C(=O)O)(c3ccccc3)CC2)c2c(C)cc(=O)oc2c1	.	0%	11%	-1.5%
Cc1ccc(N=Cc2c(O)n(-c3ccc(C)cc3)c(=O)[nH]c2=O)cc1	.	.	1%	0.1%
O=c1[nH]c(=S)n(Cc2ccco2)c(O)c1C=NCc1cccs1	-4	-2%	-7%	-14%
O=C1NC(=O)C(=Cc2cccs2)C(=O)N1	.	.	4%	-0.5%
CCOCCCN=Cc1c(O)n(Cc2ccccc2)c(=O)[nH]c1=O	5	-4%	12%	-0.4%
O=C1NC(=O)C(=CCc2ccccc2)C(=O)N1	.	.	-20%	-1.6%
CC(C)NP(=O)(NC(C)C)OP(=O)(NC(C)C)NC(C)C	2	.	15%	0.5%
(more compounds)
SMILES	GLA inh pH 4.5	miR-21 reporter	Rango release inh	Rango-impB inh
O=C1Nc2ccc(Br)cc2C(c2ccccc2Cl)=NC1O (configuration not stated)	3	-2%	-3%	-0.3%
O=c1[nH]c(=S)[nH]c(O)c1N=Nc1ccc(S(=O)(=O)N2CCOCC2)cc1	-13	-24%	5%	-3.0%
CC(=O)N(C1=NCCCS1)c1ccc(Cl)cc1	3	5%	1%	-0.7%
Cc1c(N=Cc2c(O)n(Cc3ccco3)c(=O)[nH]c2=O)c(=O)n(-c2ccccc2)n1C	-3	-2%	-4%	-1.5%
Cc1ccc(-c2cc(-c3ccc(C)cc3)[n+](-c3ccc(C(=O)O)cc3)c(-c3ccc(C)cc3)c2)cc1	.	.	9%	1.6%
COc1ccc(C(CNC(=O)c2ccc3c(c2)CCC3)N(C)C)cc1 (configuration not stated)	.	-8%	4%	1.7%
O=C(CCn1nc(-c2ccc(Cl)cc2)ccc1=O)N1CCC2(CC1)OCCO2	-2	3%	-3%	?
Cc1ccc(OCC(=O)N2CCN(CC3CC4C=CC3C4)CC2)cc1 (configuration not stated)	-7	-2%	-3%	-2.1%
Cc1ccc(C2CC(=O)C(C=NCCN3CCN(C(=O)Cc4ccccc4)CC3)=C(O)C2)cc1 (configuration not stated)	5	0%	-8%	-3.2%
O=c1[nH]c(=O)n(-c2ccccc2)c(O)c1N=Nc1ccc(Br)cc1	-20	-17%	10%	0.0%
COC(=O)C1=C(c2ccc(OC)c(OC)c2)C[C@@H]2CC[C@H]1N2C(=O)NCCCOC(C)C	.	.	-6%	1.2%
O=C(C(=O)N1CCOCC1)c1cn(Cc2ccc(F)cc2)c2ccccc12	2	1%	-4%	-1.4%
Cc1csc(NC(=O)C(Cl)c2ccccc2)n1 (configuration not stated) (tested in a mixture with another compound)	.	.	2%	-0.1%
CN1C(=O)NC(=O)/C(=C/c2ccc([N+](=O)[O-])s2)C1=O	-17	6%	-1%	?
COC(=O)C1=C(c2cc3ccccc3o2)C[C@@H]2CC[C@H]1N2C(=O)N1CCC(O)CC1	.	.	13%	-0.2%
COc1ccc(C(=O)NCc2cc3ccccc3n2C)cc1	.	-40%	19%	-0.2%
CC(C)c1cccc(C(C)C)c1OCCn1ccnc1	-5	-7%	-6%	0.3%
COC(=O)C1=C(c2ccc(OC(F)(F)F)cc2)C[C@@H]2CC[C@H]1N2C(=O)NC1CC1	.	.	-10%	-1.1%
O=C(N/N=C/c1c(O)n(CCc2ccc(F)cc2)c(=O)[nH]c1=O)c1ccccc1	-8	-8%	23%	-0.9%
Cc1ccccc1-n1c(O)c(/C=N/c2nccs2)c(=O)[nH]c1=O	-2&0	0%&7%	-1%&24%	-2.3%&-1.5%
O=c1[nH]c(=O)n(CCC2=CCCCC2)c(O)c1C=Nc1cccc(F)c1	1	0%	-7%	4.7%
CCCCSP1(=S)NCCCO1 (configuration not stated)	-2	-2%	10%	-1.4%
COc1ccc2nc(NC3=NCCN3)sc2c1	0	-66%	-6%	0.1%
CC(=O)c1cn(Cc2ccccc2C#N)c2ccccc12	4	20%	-6%	-1.2%
COc1cc([C@@H]2c3cc4c(cc3[C@H](O)[C@H]3COC(=O)[C@H]23)OCO4)cc(OC)c1OC	?	29%	18%	-6.0%

Results in GLA inh pH 4.5 and Rango-impB inh (5 entries from above):
Compound	GLA inh pH 4.5	Rango-impB inh
O=C(CCn1nc(-c2ccc(Cl)cc2)ccc1=O)N1CCC2(CC1)OCCO2	-2	?
O=C1Nc2ccc(Br)cc2C(c2ccccc2Cl)=NC1O (configuration not stated)	3	-0.3%
O=c1[nH]c(=O)n(-c2ccccc2)c(O)c1N=Nc1ccc(Br)cc1	-20	0.0%
COC(=O)C1=C(c2ccc(OC)c(OC)c2)C[C@@H]2CC[C@H]1N2C(=O)NCCCOC(C)C	.	1.2%
Cc1ccc(OCC(=O)N2CCN(CC3CC4C=CC3C4)CC2)cc1 (configuration not stated)	-7	-2.1%

Further structures
SMILES	GLA inh pH 4.5	miR-21 reporter	Rango release inh	Rango-impB inh
O=c1c2cc([N+](=O)[O-])ccc2nc(CN2CCOCC2)n1-c1ccccc1F	6	-11%	.	.
O=C1NCCN(Cc2cccc(Oc3ccccc3)c2)C1CC(=O)N1CCCCC1 (configuration not stated)	.	1%	-29%	?
CN(CC#CCN1CCCC1)C(=O)c1cccc(Cl)c1	.	.	1%	-3.7%
CN(C)CC#CCC(O)(c1ccccc1)C1CCCC1 (configuration not stated)	4	-6%	5%	-0.8%
CC(=O)C1(c2ccccc2)CCNCC1	-11	-6%	-4%	4.9%
COc1cc(OC)c(OC)cc1CNCCc1ccc(F)cc1	.	13%	19%	3.4%
CC(C)C(=O)N1CCN(CCN=Cc2c(O)n(C)c(=O)n(C)c2=O)CC1	5	1%	27%	-1.5%
c1ccc2c(NC3=NCCS3)cccc2c1	-2	-15%	0%	-2.7%
C[C@]12CC[C@H](O)CC1=CCC1C2CC[C@@]2(C)C1C[C@@H](O)[C@@H]2O (some centres not stated)	.	.	-9%	-1.2%
CCN[C@@H](C)Cc1cccc(C(F)(F)F)c1	.	.	3%	2.9%
CC(c1ccccc1)n1cncc1C(=O)N1CCCC1=O (configuration not stated)	-2	0%	2%	-2.1%
Cc1ccsc1C(=O)C1CCCN(Cc2c(C)nn(C(C)C)c2C)C1 (configuration not stated)	3	3%	-13%	-1.6%
COC(=O)C1=C(c2cccc(C#N)c2)C[C@@H]2CC[C@H]1N2C(=O)NC1CCCCC1	.	.	-2%	4.1%
COc1ccc(OC)c(C(O)C(C)N)c1 (configuration not stated)	1&-2&5	1%	-3%	0.1%
COC(=O)C1=C(c2ccc(F)cc2OCc2ccccc2)C[C@@H]2CC[C@H]1N2C(=O)NCCOc1ccc(OC)cc1	.	.	1%	-1.9%
O=C(CCc1ccc(O)cc1)N1C[C@H]2C[C@@H](C1)c1cccc(=O)n1C2	.	1%	3%	0.4%
CC1CN=C(NCc2ccccc2Cl)S1 (configuration not stated)	.	-15%	-15%	3.4%
CCc1ccc2c(c1)Sc1ccccc1CC2N1CCN(C)CC1 (configuration not stated)	.	.	25%	3.3%
O=C(CNS(=O)(=O)c1ccc(Br)s1)N1CCC2(CC1)OCCO2	5	-12%	2%	0.0%

Some of the entries so far, as labelled records.
> CC(C)c1cccc(C(C)C)c1OCCn1ccnc1
  GLA inh pH 4.5: -5; miR-21 reporter: -7%; Rango release inh: -6%; Rango-impB inh: 0.3%

> COc1ccc2nc(NC3=NCCN3)sc2c1
  GLA inh pH 4.5: 0; miR-21 reporter: -66%; Rango release inh: -6%; Rango-impB inh: 0.1%
